# CtBP-E1A inh – blocks the CtBP interaction with E1A. AlphaScreen GST-E1A/His-CtBP binding, 1536-well; active compounds read low; control for the full effect not named in the record. activity change, % (no concentration beside the values). actives 0.49% (n = 340,000). AID 651724; in the data active means activity change below about -65%; inconclusive means about -30% to -65%; inactive means above about -30%; also: % is scaled to controls: 0 for no effect and ±100 for the full control effect
#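 Homogeneous bead-based format: GST-tagged E1A captured on glutathione donor beads, His-tagged CtBP on nickel acceptor beads; compounds precede bead addition by 2 h at 37 °C.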
# Six1-Eya2 blk – blocks human Six1 binding to Eya2. actives 0.56% (n = 360,000). AlphaScreen GST-Six1/His-Eya2 binding, biochemical; active compounds read low; control for the full effect not named in the record. AID 651725. activity change, % (no concentration beside the values); in the data active = activity change below about -65%; inconclusive = about -30% to -65%; inactive = above about -30%; also: % is scaled to controls: 0 for no effect and ±100 for the full control effect
#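 GST-Six1 + His-Eya2 (5X stock: 250/500 nM); Tris pH 8.0, 300 mM NaCl, 0.05% BSA, 0.02% Tween 20; GSH donor/Ni acceptor beads; 1 h 37 °C dark; AlphaScreen readout.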
# TRPV1 PAM – potentiators of human vanilloid receptor 1 (TRPV1); TRPV1-expressing cells, Fluo-8 calcium influx, capsaicin EC20 potentiation; host cell line not named in the record; control for the full effect not named in the record; Q8NER1; potentiation, % at 8.33 µM; actives 0.02% (n = 320,000); active means potentiation above 80%; inconclusive means 30% to 80%; inactive means below 30%; also: 0% is about no effect
#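 TRPV1-expressing cells were cultured overnight at 35.5C and loaded with Fluo-8 calcium dye for 40 to 90 min at room temperature. After a 10 s baseline, compound was added and calcium influx was read kinetically for 3 min (ex 480/em 520 nm).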
# TRPML1 inh – inhibitors of human TRPML1 channel; Q9GZU1; TRPML1-inducible cells, Ca2+ dye fluorescence, FDSS; active compounds read low; inhibition of EC80 agonist-evoked calcium signal; activity change, negative = inhibition, % (concentration not given with the values); actives 0.02% (n = 390,000); AID 624415; in the data active means activity change below about -50%; inconclusive means about -30% to -50%; inactive means above about -30%;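 also: stimulus is agonist 54-4 at its EC80 concentration; % is scaled to controls: 0 for no effect and ±100 for the full control effect; the text of the record puts the active cut at -80%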
# Target sequence (Q9GZU1 whole entry, looked up): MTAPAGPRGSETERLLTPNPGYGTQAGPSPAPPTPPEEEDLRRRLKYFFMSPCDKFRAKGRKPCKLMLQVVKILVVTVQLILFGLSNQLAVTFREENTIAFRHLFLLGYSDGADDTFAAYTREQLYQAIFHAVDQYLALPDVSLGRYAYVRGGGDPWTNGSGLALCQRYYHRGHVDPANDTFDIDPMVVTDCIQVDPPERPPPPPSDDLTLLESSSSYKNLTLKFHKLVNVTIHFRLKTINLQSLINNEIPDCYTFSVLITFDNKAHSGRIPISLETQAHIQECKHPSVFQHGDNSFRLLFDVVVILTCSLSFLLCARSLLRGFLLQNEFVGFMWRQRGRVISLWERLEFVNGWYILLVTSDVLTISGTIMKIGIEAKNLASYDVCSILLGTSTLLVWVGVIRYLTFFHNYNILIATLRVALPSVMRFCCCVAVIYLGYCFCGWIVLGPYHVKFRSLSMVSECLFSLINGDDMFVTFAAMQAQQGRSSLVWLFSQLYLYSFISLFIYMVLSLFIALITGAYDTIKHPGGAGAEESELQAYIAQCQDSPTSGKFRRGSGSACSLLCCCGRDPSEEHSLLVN
#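 TRPML1-DL cells, Tet-induced overnight (~16 h, 37 °C) at 1,500 cells/well, were loaded with Ca8 no-wash dye plus quencher for 45-90 min at room temperature. Compounds were pinned during FDSS kinetic reading; agonist 54-4 at EC80 (4 uM final) then added.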
# D2 PAM – potentiates the human D2 dopamine receptor allosterically. P14416. DiscoveRx D2 beta-arrestin cells, luminescence, 90 min; 100% = 57 uM dopamine signal. potentiation, % (test concentration not listed). actives 0.23% (n = 360,000). AID 624464; active = potentiation of 50% or more; inconclusive = 30% to 50%; inactive = 30% or less;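 also: compound concentration not given in the record; tested on top of an EC20 dose of dopamine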
# Target sequence (P14416 whole entry, looked up): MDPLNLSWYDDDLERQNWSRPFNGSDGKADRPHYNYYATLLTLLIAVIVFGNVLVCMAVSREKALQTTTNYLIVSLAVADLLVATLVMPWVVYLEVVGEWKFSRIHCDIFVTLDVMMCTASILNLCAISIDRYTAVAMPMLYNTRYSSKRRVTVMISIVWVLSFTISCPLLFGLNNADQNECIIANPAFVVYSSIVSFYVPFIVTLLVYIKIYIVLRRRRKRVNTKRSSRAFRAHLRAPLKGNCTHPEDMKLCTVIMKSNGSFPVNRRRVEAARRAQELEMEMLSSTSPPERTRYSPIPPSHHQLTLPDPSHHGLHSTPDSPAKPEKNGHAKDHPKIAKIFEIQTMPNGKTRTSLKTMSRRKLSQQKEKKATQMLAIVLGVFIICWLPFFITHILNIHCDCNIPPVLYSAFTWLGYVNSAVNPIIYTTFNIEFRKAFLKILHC
#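 PathHunter D2 cells, attached overnight at 37 deg C, received compound in DMSO plus dopamine at EC20 (50 nM final) for 90 min at 37 deg C. Beta-arrestin recruitment was read as luminescence after 1 h with detection reagent at ambient temperature.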
# TRPML1 ag – agonists of human TRPML1 channel. TRPML1-expressing cells, Ca2+ dye fluorescence, FDSS; host cell line not named in the record; reference of the full effect not given here. activation, % (test concentration not listed). AID 624414. actives 0.12% (n = 410,000). Q9GZU1; in the data active = activation above about 50%; inconclusive = about 30% to 50%; inactive = below about 30%; also: 0% is about no effect; the text of the record puts the active cut at 80%
#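 Tetracycline-induced TRPML1-DL cells are seeded and incubated overnight before loading with a no-wash Ca2+ dye and quencher. Agonist activity is taken from the 110 s fluorescence read following compound pin-transfer on an FDSS, before EC80 54-4 challenge.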
# Starred values were filed as active, the others as inactive; ? = inconclusive; . = not tested or not shown; & = joins results of further samples.
# Results follow in this order: CtBP-E1A inh	Six1-Eya2 blk	TRPV1 PAM	TRPML1 inh	D2 PAM	TRPML1 ag
> COc1ccc(C(=O)Cc2cc(OC)c(OC)cc2[N+](=O)[O-])c(OC)c1
  -0.5	6.5	7.3	-5.0	-17.3	0.7
> O=C(NCCO)C(=O)Nc1cc2c3c(c1)CCN3C(=O)CC2
  .	-1.3	-1.6	5.1	-6.0	-0.7
> Cc1nc2nc3c(cn2n1)C(=O)CC(c1ccccc1)C3 (centres undefined)
  -1.0	-3.2	3.7	-0.3	8.9	13.8
> CC(=O)c1cc2c(cc1NC(=O)CSc1nc3ccccc3o1)OCO2
  5.9	1.0	7.3	9.0	-11.5	-1.6
> COc1cc2c(c(OC)c1OC)C(=O)CC2
  3.3	-12.8	9.9	-3.5	-9.6	-0.8
> Cc1noc(C)c1COc1ccc(C(=O)N2CCN(S(=O)(=O)c3ccc(F)cc3)CC2)cc1
  9.3	-0.1	.	11.0	6.4	0.9
> Cc1cccc(CCNC(=O)C2CCC(CNS(=O)(=O)c3cccs3)CC2)c1 (centres undefined)
  1.5	-2.8	-4.0	-13.9	3.3	0.5
> NNC(=O)c1oc2nc(-c3ccc(Cl)cc3)cc(-c3ccccc3)c2c1N
  3.2	2.7	4.7	-2.4	-8.3	-1.1
> Cc1cc(C(=O)N2CCC(C)(C(=O)NS(=O)(=O)C3CC3)C2)n(C(C)(C)C)n1 (centres undefined)
  7.2	-3.5	.	.	-2.4	-0.6
> Cc1csc(NC(=O)CN2C(=O)c3ccccc3S2(=O)=O)n1
  -6.4	7.2	-1.2	7.6	-23.1	-0.2
> N#Cc1c(NC(=O)C2CC(c3c(F)cccc3Cl)=NO2)sc2c1CCC2 (centres undefined)
  5.7	3.1	10.6	-10.5	-1.8	2.1
> Cc1c(C)n2c(SCC(=O)N3CCCCC3)nnc2[nH]c1=O
  7.3	4.7	-3.7	1.2	-3.4	-0.7
> O=C(NC(Cc1ccccc1)C(=O)O)/C(=C/c1ccc([N+](=O)[O-])cc1)NC(=O)c1ccccc1Br (centres undefined)
  2.1	2.1	24.9	12.7	-2.4	-0.5
> COc1ccc(C(=O)NC(=S)Nc2ccc(CN3CCOCC3)cc2)cc1OC
  .	3.6	-7.5	0.9	-10.9	0.4
> Nc1ccc(Nc2ccccc2N)cc1
  -24.2	-28.8	21.4	5.2	20.1	0.2
> CNC(=O)C1CC(=O)N(CCc2ccc(OC)cc2)C(=Nc2ccc(OC)cc2)S1 (centres undefined)
  6.1	2.9	7.8	-4.3	-6.4	-0.9
> Cc1ccc(NC(=S)NCCN(C2CCCCC2)C2CCCC2)cc1C
  -12.9	-20.7	-1.3	4.1	-11.9	-0.7
> O=C(CN(Cc1ccc(F)cc1)C(=O)CNS(=O)(=O)c1ccc(F)cc1)NCC1CCCO1 (centres undefined)
  -4.4	1.9	-6.7	27.0	4.0	-0.4
> COc1cccc(C(=O)OCCCN(C)C)c1
  16.4	3.3	0.2	-8.2	13.0	-0.2
> COCc1n[nH]c(=S)n1-c1ccccc1
  -3.6	-2.4	2.0	-2.0	-0.6	2.4
> CC1CCCN(CCC(=O)c2ccc(Br)cc2)C1 (centres undefined)
  -0.1	5.2	-9.5	5.3	-49.6	2.5
> O=C1C2CC=CCC2C(=O)N1c1ccc(OCC(O)Cn2nnc3ccccc32)cc1 (centres undefined)
  8.8	-0.3	-1.0	29.5	11.7	-0.9
> CN(CC(=O)Nc1ccc(Cl)c(C(F)(F)F)c1)C(=O)Cc1n[nH]c(=O)c2ccccc12
  1.1	-3.8	-8.3	1.4	-22.7	-0.5
> COC(=O)C1(C)CCC(C(=O)Nc2ccccc2)C1(C)C (centres undefined)
  7.2	0.6	.	18.5	-5.8	-0.3
> CCC(=NCCc1c(C)[nH]c2ccc(C)cc12)C1=C(O)CC(c2ccccc2)CC1=O (centres undefined)
  5.1	-29.1	3.1	-16.7	-6.7	1.8
> COc1cc(/C=C/C(=O)NC(C)C2CC3CCC2C3)cc(OC)c1OC (centres undefined)
  -1.9	-3.5	-3.6	5.0	-12.1	0.3
> COc1ccc(C2(C)NC(=O)N(CC(=O)Nc3c(C)n(C)n(-c4ccccc4)c3=O)C2=O)cc1 (centres undefined)
  1.8	2.1	-4.5	22.9	-68.0	0.1
> N#Cc1ccc(CSc2nnc(-c3c[nH]c4ccccc34)n2-c2ccccc2)cc1
  22.0	?	-1.8	19.9	13.6	-0.7
> Cc1[nH]c2ccccc2c1SCc1n[nH]c(=S)n1C
  .	-5.1	11.4	-2.0	-25.8	-0.5
> Cc1ccc(-c2csc3ncn(CC#N)c(=O)c23)cc1C
  -21.7	-10.8	9.2	9.7	-2.6	-0.2

# 3 compounds out of the list, sorted by molecular weight, largest number first:
# Results follow in this order: CtBP-E1A inh	Six1-Eya2 blk	TRPV1 PAM	TRPML1 inh	D2 PAM	TRPML1 ag
> Cc1noc(C)c1COc1ccc(C(=O)N2CCN(S(=O)(=O)c3ccc(F)cc3)CC2)cc1
  9.3	-0.1	.	11.0	6.4	0.9
> COc1ccc(C2(C)NC(=O)N(CC(=O)Nc3c(C)n(C)n(-c4ccccc4)c3=O)C2=O)cc1 (centres undefined)
  1.8	2.1	-4.5	22.9	-68.0	0.1
> Cc1ccc(-c2csc3ncn(CC#N)c(=O)c23)cc1C
  -21.7	-10.8	9.2	9.7	-2.6	-0.2

# Entries from the list above that have a Cl atom (3):
# Results follow in this order: CtBP-E1A inh	Six1-Eya2 blk	TRPV1 PAM	TRPML1 inh	D2 PAM	TRPML1 ag
> NNC(=O)c1oc2nc(-c3ccc(Cl)cc3)cc(-c3ccccc3)c2c1N
  3.2	2.7	4.7	-2.4	-8.3	-1.1
> N#Cc1c(NC(=O)C2CC(c3c(F)cccc3Cl)=NO2)sc2c1CCC2 (centres undefined)
  5.7	3.1	10.6	-10.5	-1.8	2.1
> CN(CC(=O)Nc1ccc(Cl)c(C(F)(F)F)c1)C(=O)Cc1n[nH]c(=O)c2ccccc12
  1.1	-3.8	-8.3	1.4	-22.7	-0.5

# Other records.
# Results follow in this order: CtBP-E1A inh	Six1-Eya2 blk	TRPV1 PAM	TRPML1 inh	D2 PAM	TRPML1 ag
> CC1(NC(=O)c2cccc(S(=O)(=O)N3CCN(c4ccccc4)CC3)c2)CCS(=O)(=O)C1 (centres undefined)
  -6.6	-0.1	4.3	11.3	?	-0.7
> CCOC(=O)c1[nH]c2ccc(C)cc2c1N=CN(CC)CC
  -2.5	-2.3	9.2	-3.6	-13.0	3.6
> CCNc1nc(Cl)nc(-c2cn(-c3ccccc3)c3ccccc23)n1
  .	-1.4	25.6	4.2	-4.6	-0.6
> Cc1c(CNC(=O)c2nn3c(c2Cl)NC(c2ccccc2)CC3C(F)(F)F)cnn1C (centres undefined)
  3.0	7.2	2.8	11.2	0.4	0.7
> COC(=O)N/N=C/c1ccccc1OCCOc1ccc(OC)cc1
  2.1	-1.3	?	-3.8	-4.9	0.1
> COCCn1ccc2c(OCC(=O)NCCc3ccccc3)cccc2c1=O
  6.3	-0.1	-9.2	23.4	-1.2	-0.1
> Cc1ccc(-c2nc3cc(C)c(Br)c(C)n3c2Cc2ccsc2)cc1
  -4.3	1.4	.	.	.	-0.4
> COc1ccc(-c2cccc(NS(=O)(=O)c3cc([N+](=O)[O-])c(C)c([N+](=O)[O-])c3)c2)nn1
  10.0	-12.5	4.9	11.2	?	0.6
> O=c1[nH]c(=S)[nH]c2c1C(C1CCCCC1)OC(C1CCCCC1)C2 (centres undefined)
  6.4	0.6	.	.	.	-0.6
> COc1ccc(/C=C/C(=O)NCCc2ccc(OC)c(OC)c2)cc1
  10.4	1.6	-10.5	38.4	-2.4	-0.4
> O=C(CN(C(=O)CCC(=O)Nc1ccccn1)c1ccc(F)cc1)NCCc1ccccc1
  -3.1	3.3	24.3	0.1	-4.6	0.2
> COCCN(C(=O)c1cc(-c2ccncc2)nc2ccccc12)c1c(N)n(CC(C)C)c(=O)[nH]c1=O
  -0.8	6.6	-9.0	5.0	5.3	0.3
> CN(CC(=O)Nc1ccc(F)c(F)c1F)C(=O)C1CC(=O)N(c2ccc3c(c2)OCCO3)C1 (centres undefined)
  -26.4	4.8	13.2	26.6	6.8	1.4
> C=CCN(c1ccc(C(=O)Nc2cccc(C)c2)cc1)S(C)(=O)=O
  3.8	-1.0	-1.9	-9.0	-11.6	-0.4
> O=C(c1ccc(S(=O)(=O)N2CCOCC2)cc1)N1CCN(c2ccccn2)CC1
  1.1	1.6	7.3	19.3	-2.8	-0.2
> C=CCn1c(SCc2c(C)noc2C)nc2sc3c(c2c1=O)CCCCC3
  4.4	2.9	-3.3	17.7	4.4	0.7
> O=C(NCC(=O)N(CC1CCCO1)C(C(=O)NC1CCCCC1)c1ccc(F)cc1)c1ccco1 (centres undefined)
  3.7	3.6	-9.3	3.5	0.0	1.1
> COCCn1nnnc1CN1CCN2CCCC2C1 (centres undefined)
  0.5	2.2	6.9	-20.4	-4.5	1.9
> CC1(C)C2CCC1(CS(=O)(=O)N1CCN(c3ccccc3F)CC1)C(=O)C2 (centres undefined)
  4.9	6.2	-29.5	5.3	-8.8	-0.8
> CS(=O)(=O)N1CCN(c2ccc(NC(=S)NC(=O)c3cccs3)cc2)CC1
  .	1.3	?	22.5	-9.3	0.5
> COc1cc(/C=N/Nc2nc(N3CCCC3)nc(N3CCCC3)n2)ccc1O
  -1.9	-8.5	-5.0	14.8	6.8	0.1
> CC(O)Cn1nc([N+](=O)[O-])nc1N (centres undefined)
  13.3	4.5	?	18.0	0.1	-0.3
> COc1ccccc1C(CNC(=O)c1cccc(NS(=O)(=O)c2ccc(C)c(F)c2)c1)N1CCCC1 (centres undefined)
  -4.2	-5.3	-5.7	-12.3	-5.4	-1.1
> Cn1c2c(c(=O)[nH]c1=O)C(NC(=O)c1ccco1)(C(F)(F)F)C(=O)N2 (centres undefined)
  0.9	-0.4	6.3	7.2	-13.0	-0.8
> COc1ccc(OCC(=O)Nc2nc3c(s2)CCCC3)cc1
  .	-11.1	3.1	30.1	-6.3	0.5
> Cc1ccc(S(=O)(=O)N(C)C[C@@H]2Oc3ccc(NS(=O)(=O)c4ccccc4)cc3CC(=O)N([C@@H](C)CO)C[C@H]2C)cc1
  -6.2	-2.9	.	4.6	-8.6	2.2
> CC(C)CNC(=O)CC1Nc2ccccc2NC1=O (centres undefined)
  6.0	2.0	0.4	4.5	6.4	-0.9
> COc1ccc(C2=NOC(C(=O)NCc3ccco3)C2)cc1 (centres undefined)
  -1.0	-3.1	-5.1	23.7	-4.1	3.3
> CC(=O)O[C@H]1C(=O)[C@@]2(C)[C@H]([C@H](OC(=O)c3ccccc3)[C@]3(O)C[C@H](OC(=O)[C@H](O)[C@@H](NC(=O)c4ccccc4)c4ccccc4)C(C)=C1C3(C)C)[C@]1(OC(C)=O)CO[C@@H]1C[C@@H]2O
  -20.1	4.2	-2.4	20.8	-6.7	3.5&0.2
> CC(=O)N(C(C)=O)c1ccc(Oc2ccc(Oc3ccc(N(C(C)=O)C(C)=O)cc3)cc2)cc1
  13.8	-2.6	.	-11.4	-2.6	0.2
> COc1ccccc1CNc1nc(NCc2ccccc2OC)c2sccc2n1
  -14.5	-11.8	.	.	-20.2	-0.4
> CCN(CC)CCn1c(NS(=O)(=O)c2ccc(C)cc2)nc2ccccc21
  -19.8	4.3	-3.1	3.9	-40.0	1.4

# Screening data (PubChem)
